Screening results from PubChem BioAssay.
2A StopGo = lowers the luciferase signal of an FMDV 2A StopGo reporter; human cells with a luciferase reporter of 2A StopGo recoding; control for the full effect not named in the record; Potency, µM (doses to about 57.9 µM), for inactives: at the top dose signal change, negative = less light; 410,000 tested, 1.2% active; active = well fitted falling curve with a large enough effect; inconclusive = small, poorly fitted or top-dose-only effect; inactive = no such curve, though single readings can be large or run the other way; tested in HEK293T cells; further: on the % scale 0 is the no-effect control and ±100 the full control effect; nearly all actives have a fitted effect of over 45% in size; luciferase light after 4 h
RE007 growth inh = less growth of the S. pombe RE007 Vpr strain. S. pombe RE007 Vpr strain, BacTiter-Glo ATP luminescence, 24 h; control for the full effect not named in the record. Potency, µM (highest dose often 92.2 µM), for the others: top-dose activity change, negative = less growth. 360,000 tested, 0.21% active; active = well fitted falling curve with a large enough effect; inconclusive = small, poorly fitted or top-dose-only effect; inactive = no such curve, though single readings can be large or run the other way;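 further: on the % scale 0 is the no-effect control and ±100 the full control effect; nearly all actives have a fitted effect of over 50% in size; the assay follows cell death caused by Vpr and the record does not say whether a fall means rescue or toxicity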
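Fission yeast strain RE007, carrying one chromosomally integrated HIV-1 vpr copy, was seeded at OD 0.01 in PMG+AL medium with 23 nL pinned compound. After 24 h at 30 °C and 99% humidity, viability was read by BacTiter-Glo luminescence.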
Cruzain inh noDet = blocks cruzain activity in detergent-free assay; P25779; purified cruzain, Z-FR-AMC fluorescence, no detergent; Potency, µM, for the others: max response, negative = inhibition, actives largely listed as inhibitors; 200,000 tested, 2.3% active;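 further: plate controls were enzyme without inhibitor for no effect and buffer without enzyme for full effect; nearly all actives have a fitted effect of over 40% in size; top concentration of the series not given in the record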
Target sequence (P25779 123-467 limits assumed): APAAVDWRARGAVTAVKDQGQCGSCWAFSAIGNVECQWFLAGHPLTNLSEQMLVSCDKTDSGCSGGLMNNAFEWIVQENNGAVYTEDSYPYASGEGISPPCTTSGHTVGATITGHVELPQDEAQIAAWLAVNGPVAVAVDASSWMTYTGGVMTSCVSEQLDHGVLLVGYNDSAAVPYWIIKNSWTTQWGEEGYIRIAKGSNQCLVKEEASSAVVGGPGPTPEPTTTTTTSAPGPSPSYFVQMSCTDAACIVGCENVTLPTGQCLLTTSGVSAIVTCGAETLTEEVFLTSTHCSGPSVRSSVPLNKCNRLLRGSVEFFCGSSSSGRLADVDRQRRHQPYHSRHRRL
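Detergent-free condition (0.00005% Triton X-100) in acetate buffer pH 5.5 with DTT. 1.5 nM enzyme and compound were pre-mixed 15 min, then 2 uM Z-FR-AMC substrate added; reaction progress from fluorescence change between first and third reads (60 s).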
SARS PLP yeast = blocks SARS-CoV papain-like protease in a yeast assay. Potency, µM (highest dose often 32.9 µM), inactives show at the highest dose activity, positive = growth rescue. AID 485353. 330,000 tested, 0.19% active. S. cerevisiae expressing SARS-CoV PLpro, growth rescue; control for the full effect not named in the record; active means well fitted rising curve with a large enough effect; inconclusive means small, poorly fitted or top-dose-only effect; inactive means no such curve, though single readings can be large or run the other way; further: 0% is about no effect; nearly all actives have a fitted effect of over 55% in size; growth read by luminescence after 48 h
Cruzain inh Det = cruzain (T. cruzi) inhibition with detergent; P25779; purified cruzain, Z-FR-AMC fluorescence, 0.01% Triton; Potency, µM, without a hit: max response, negative = inhibition, usual class: inhibitors; 200,000 tested, 0.43% active;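 further: plate controls were neutral wells for no effect and buffer without enzyme for full effect; nearly all actives have a fitted effect of over 40% in size; top concentration of the series not given in the record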
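Detergent-containing run (0.01% Triton X-100) in acetate buffer pH 5.5 with 5 mM DTT: enzyme at 1.5 nM final, 15 min compound preincubation at room temperature, then 2 uM Z-FR-AMC substrate. Activity taken as 60 s fluorescence increase at 360/450 nm.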
Lassa entry inh = Lassa virus entry inhibition; Lassa virus pseudotype entry inhibition, cell reporter; control for the full effect not named in the record; Potency, µM (highest dose often 37.9 µM), inactives show at the top dose activity change, negative = inhibition, hits mostly inhibitors; 300,000 tested, 1.2% active; active means well fitted inhibition curve with a large enough effect; inconclusive means small, poorly fitted or top-dose-only effect, or effect the other way; inactive means flat fitted curve, though single readings scatter; tested in HEK293 cells; further: on the % scale 0 is the no-effect control and ±100 the full control effect; nearly all actives have a fitted effect of over 50% in size; luciferase read-out
NS1 inh = blocks influenza NS1 protein function | S. cerevisiae slowed by influenza A NS1, growth recovery by OD600 | Potency, µM (top dose mostly 46.1 µM), inactives show at the highest dose activity, positive = more growth | 270,000 tested, 0.4% active | AID 2326; active means well fitted rising curve with a large enough effect; inconclusive means small, poorly fitted or top-dose-only effect; inactive means no such curve, though single readings can be large or run the other way; further: nearly all actives have a fitted effect of over 50% in size
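Recovery from NS1-induced slow growth read by OD600 in budding yeast switched to galactose assay medium (pH 6.0, -URA) at 1:100 dilution. Compound 23 nl per well; the matching strain lacking NS1 serves as control.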
MARV entry inh = inhibitors of Marburg virus binding or cell entry; AID 540276; Marburg virus pseudotyped entry inhibition, cell reporter; control for the full effect not named in the record; about a third of the inactives were read at about 46 µM; 300,000 tested, 1.8% active; Potency, µM (top dose mostly 37.8 µM), for inactives: at the top dose activity change, negative = inhibition, usual class: inhibitors; active = well fitted inhibition curve with a large enough effect; inconclusive = small, poorly fitted or top-dose-only effect, or effect the other way; inactive = flat fitted curve, though single readings scatter; tested in HEK293 cells; about a fifth of its hits are not listed in these tables; further: on the % scale 0 is the no-effect control and ±100 the full control effect; luciferase read-out
The depositor's hits bear a star; ? = inconclusive; nt = no result given; [ ] = dose if it differs, or a comment. Unless noted, the call rests on the fitted dose curve; in most records, active means well fitted curve in the direction sought with a large enough effect; inconclusive means small, poorly fitted or top-dose-only effect, or another doubt; inactive means no such curve, though single readings can be large; an effect the other way counts as inactive or inconclusive. Potency means the concentration at half of the fitted maximal effect.

Results follow in this order: 2A StopGo	RE007 growth inh	Cruzain inh noDet	SARS PLP yeast	Cruzain inh Det	Lassa entry inh	NS1 inh	MARV entry inh
CCOc1ccc(C(=O)Nc2cc(S(=O)(=O)Nc3ccccc3Cl)ccc2N2CCOCC2)cc1
    27%	-6%	?	-10%	-5.3%	?	?	?
CC(=O)Nc1cccc(NC(=O)CS(=O)(=O)c2cn(CC(=O)N(C(C)C)C(C)C)c3ccccc23)c1
    -4%	-8%	nt	1%	nt	nt	16%	nt
Cc1nc2c(C(=O)N3CCCCC3)cnn2c(C)c1Cc1ccccc1F
    -4%	8%	3%	3%	0.9%	-8%	-47%	-3%
CC1CC(C)CN(C(=O)c2ccc(N3CC4CC(C3)c3cccc(=O)n3C4)c([N+](=O)[O-])c2)C1 (stereo not given)
    -25%	-1%	23%	0%	-3.8%	?	5%	-13%
CCOc1ccc(NC(=O)CSc2nnc(C)n2CCCOC)cc1
    -10%	6%	2%	-3%	5.3%	8%	?	21%
COc1cccc(Cn2cc(S(=O)(=O)c3ccc(C)cc3)c(=O)c3cc4c(cc32)OCO4)c1
    46%[activator]	nt	?	nt	-3.6%	0%[46.1 µM]	nt	?
CCC(CC)C(=O)Nc1cccc(-c2nc3cccnc3s2)c1C
    ?	nt	8%	nt	-1.6%	7%[46.1 µM]	nt	nt
Cc1nc(-c2nc(CC(=O)NNC(=O)c3ccc(Cl)cc3)cs2)cs1
    -13%	0%	nt	0%	nt	?	2%	1%
CC(C)C(=O)Nc1nnc(S(=O)(=O)N2CCCc3ccccc32)s1
    0%	3%	nt	6%	nt	nt	11%	nt
CCOC(=O)Cn1nc(-c2ccccc2)c2ccccc2c1=O
    nt	-2%	8%	3%	-1.2%	3%	7%	3%

Reformatted: two of the compounds above
mol: CCOC(=O)Cn1nc(-c2ccccc2)c2ccccc2c1=O
  2A StopGo = nt
  RE007 growth inh = -2%
  Cruzain inh noDet = 8%
  SARS PLP yeast = 3%
  Cruzain inh Det = -1.2%
  Lassa entry inh = 3%
  NS1 inh = 7%
  MARV entry inh = 3%
mol: CCC(CC)C(=O)Nc1cccc(-c2nc3cccnc3s2)c1C
  2A StopGo = ?
  RE007 growth inh = nt
  Cruzain inh noDet = 8%
  SARS PLP yeast = nt
  Cruzain inh Det = -1.6%
  Lassa entry inh = 7%[46.1 µM]
  NS1 inh = nt
  MARV entry inh = nt

Continued:
Results follow in this order: 2A StopGo	RE007 growth inh	Cruzain inh noDet	SARS PLP yeast	Cruzain inh Det	Lassa entry inh	NS1 inh	MARV entry inh
O=[N+]([O-])c1ccc(S(=O)(=O)Nc2ccc(-c3ccc(N4CCOCC4)nn3)cc2)cc1
    28%	-18%	nt	14%	nt	13%[46.1 µM]	nt	?
CCC(C)(C)n1nnnc1C(c1cc2cc3c(cc2[nH]c1=O)OCO3)N1CCCCC1 (stereo not given)
    19%	-14%	-12%	-3%	-14%	6%	-8%	12%
O=C(CC1SCCNC1=O)Nc1cccc(C(F)(F)F)c1 (stereo not given)
    51%[activator]	-29%	3%	3%	2.5%	21%	?	1%
CCC(C)(C(=O)NC1CCCC1)N(C(=O)CNC(C)=O)c1ccc(C)cc1 (stereo not given)
    19%	2%	20%	1%	2.9%	11%	-4%	-2%
COc1ccc(CNC(=O)CCc2c(C)nn(-c3ccc(N4CCCCC4)nn3)c2C)cc1
    5%	nt	-9%	nt	-1.2%	-27%[46.1 µM]	nt	nt
CN(CC(=O)N1CC(=O)N(CCc2ccccc2)C(=O)C1)S(=O)(=O)c1cccc2nsnc12
    -10%	-3%	5%	-8%	-25%	?	-19%	?
COc1cc(NC(=O)c2cc3c(=O)n(C)c4ccccc4c3n2C)cc(OC)c1OC
    -7%	13%	-30%	5%	-1.9%	nt	10%	-5%
COc1ccccc1NC(=O)c1ccc(-c2ccc(Br)cc2)o1
    2%	?	0%	-11%	-5.7%	?	-20%	-16%
COC(=O)C1=CN(C(C)C)C=C(C(=O)OC)C1c1cc(Br)c(OC)c(OC)c1
    ?	4%	?	5%	-12%	4.1µM*	-28%	?
O=C(CCC(=O)OCC(=O)c1cccc([N+](=O)[O-])c1)Nc1ccccc1Cl
    14%	8%	-3%	3%	3.6%	0%	9%	-2%
CN(C)c1ccc(NC(=O)CN2CCN(CC(=O)Nc3ccc(Br)cc3)CC2)cc1
    -11%	nt	0%	nt	0.4%	-1%[46.1 µM]	nt	nt
O=C(CC(O)(c1ccccc1)c1ccccc1)Nc1ccccn1
    -30%	-1%	nt	nt	nt	-29%	nt	-20%
c1cc(-c2nsc(-c3ccncc3)n2)ccn1
    15%	-24%	nt	-1%	nt	11%[46.1 µM]	-3%	-21%[46.1 µM]
CCCC(=O)Nc1cccc(NC(=O)c2ccccc2Br)c1
    -11%	-11%	-7%	-1%	4.1%	-5%	3%	-8%
Nn1cnc2scc(-c3ccco3)c2c1=O
    2%	-12%	nt	0%	nt	-1%[46.1 µM]	-15%	?
Cc1onc(-c2ccccc2Cl)c1C(=O)Nc1ccc(S(=O)(=O)NCC2CCCO2)cc1 (stereo not given)
    21%	-6%	9%	-3%	5.3%	3%	-22%	0%
Cc1onc(-c2ccccc2)c1C(=O)Nc1cccc(C#N)c1
    -23%	7%	-8%	-3%	-2.0%	nt	-20%	nt
O=C(COc1ccccc1)Nc1cccc(-c2nc3ccccc3[nH]2)c1
    2%	-14%	-5%	-72%	-6.5%	?	-57%	?
Cc1ccc(C)c(NC(=O)CSc2c(C)n[nH]c2C)c1
    7%	20%	nt	0%	nt	?	-3%	1%[46.1 µM]
O=C(NNC(=O)c1ccccc1Br)c1ccc(Cl)cc1
    nt	-16%	-11%	4%	2.6%	30%	-1%	-2%
CC(=O)Nc1cccc(NC(=O)CSc2nc(C)c(C)c(C)c2C#N)c1
    ?	12%	16%	-3%	0.1%	28%	10%[9.22 µM]	?
COc1cc(S(=O)(=O)N(Cc2cccnc2)Cc2cccc(OC)c2OC)ccc1-n1cnnn1
    13%	4%	nt	-2%	nt	1%	-98%	-16%[46.1 µM]
CCOC(=O)C1(CCCc2ccccc2)CCN(C(=O)CSC)CC1
    -14%	9%	nt	-5%	nt	?	-23%	?
CSc1cccc(NC(=O)Cn2ncn3c(cc4ccccc43)c2=O)c1
    3%	nt	-21%	nt	-3.0%	nt	nt	?
CCOC(=O)c1c(C)n(-c2ccccc2)c2ccc(OC(=O)c3cccc(Cl)c3)cc12
    -15%	nt	?	nt	-0.2%	24%[46.1 µM]	nt	nt
COc1ccc(-n2c(N)c(C(=O)NCc3ccco3)sc2=S)cc1
    -12%	12%	-3%	1%	-5.5%	-15%	?	1%[46.1 µM]
Cc1cc(-c2ccccc2)c2c(=O)[nH][nH]c2n1
    4%	-16%	2%	?	-2.3%	-2%	10µM*	?
COc1ccc(OCC(=O)N(Cc2cccs2)c2ccc(OC)cc2)cc1
    -20%	nt	2%	nt	-5.1%	-14%[46.1 µM]	nt	?
CN(C)S(=O)(=O)c1ccc(Cl)c(NC(=O)COC(=O)c2ccc(O)cc2)c1
    -28%	-3%	nt	0%	nt	?	nt	5%[46.1 µM]
COC(=O)c1ccccc1NC(=S)NC(=O)c1ccccc1F
    -16%	17%	-9%	0%	-5.1%	-1%	21%	?
CCOc1ccc2nc(Cl)c(C3CC(c4ccc(C)cc4)=NN3C(=O)CCC(=O)O)cc2c1 (stereo not given)
    0%	nt	?	nt	-2.2%	30%[46.1 µM]	nt	6%[46.1 µM]
Cn1nc(-c2ccc(C(=O)Nc3ccc(F)cc3)cc2)c2ccccc2c1=O
    40µM*	14%	1%	-1%	-2.0%	?	nt	?
COc1ccc(S(=O)(=O)N2CCC(C(=O)NCCN3CCOCC3)CC2)cc1
    4%	-7%	nt	-5%	nt	3%[46.1 µM]	-5%	18%[46.1 µM]
COc1ccccc1CN(C)C(=O)C1COc2ccccc2O1 (stereo not given)
    4%	0%	-3%	-1%	-3.0%	-21%	-10%	3%
CCc1ccc(S(=O)(=O)c2cn(Cc3ccccc3F)c3cc(OC)c(OC)cc3c2=O)cc1
    -12%	nt	?	nt	-2.1%	?	nt	-17%[46.1 µM]
Cc1c(N(C(=O)c2cc(=O)[nH]c3ccccc23)C(C)C)c(=O)n(-c2ccccc2)n1C
    nt	3%	-1%	2%	-0.3%	-1%	3%	0%
c1ccc(-c2ccc(OCCCNC3CCCC3)cc2)cc1
    -29%	-4%	nt	-1%	nt	-25%	-7%	?
Cc1cc(C)c(NC(=O)COc2ccccc2C(=O)Nc2ccc3c(c2)oc2ccccc23)c(C)c1
    10%	9%	5µM*	?	-4.8%	-3%	-10%	-10%[46.1 µM]
Cc1ccc(NC(=O)Nc2ccc(F)c(Cl)c2)cc1
    10%	7%	nt	-2%	nt	1%[46.1 µM]	-41%	?
COc1ccc(C(Nc2ccccn2)c2c(NC(=O)c3ccco3)sc(C)c2C)cc1OC (stereo not given)
    10%	-12%	9%	-11%	-4.0%	-36%	-3%	-15%
CC1(C)CC(NC(=O)c2ccc(Cl)cc2)CC(C)(C)N1
    -8%	7%	nt	-10%	nt	16%	13%	-7%
CCc1nc2nc(C)c(NS(=O)(=O)c3ccc(Cl)cc3)c(=O)n2[nH]1
    -4%	1%	nt	0%	nt	18%	-11%	12%[46.1 µM]
CCOc1ccccc1Nc1ccc2cc(S(=O)(=O)N3CCCCC3)ccc2n1
    -12%	nt	?	nt	-5.4%	?	nt	nt
CC1CCCN(CC(=O)N2CCCc3ccccc32)C1 (stereo not given)
    -20%	-10%	-4%	14%	0.7%	5%	-10%	-26%
Cc1ccc(CSc2nc(=O)c3c(C)cc(C)nc3n2C2CC2)cc1
    ?	nt	2%	nt	-2.2%	-11%[46.1 µM]	nt	nt
CC1Cc2ccccc2N1CC(=O)NC(=O)NCc1ccccc1 (stereo not given)
    -14%	-1%	nt	0%	nt	?	nt	3%[46.1 µM]
